Ecoli rRNA inh = inhibitors of bacterial rRNA selective over humanized ribosomes; GFP signal change (wild-type ribosome), % (test concentration not listed); E. coli WT GFP vs humanized-ribosome RFP mutants, fluorescence, 24 h; active compounds read low; DMSO median 0, no signal -100; 350,000 compounds, 1.6% hits; AID 720706;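 active = significant combined selectivity score with lowered wild-type GFP, culture density cut under 30%, mutant RFP and density less affected; inactive = any of these conditions unmet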; note: one replicate is shown; some compounds called inactive have numbers as strong as hits
UCH37 inh = inhibitors of human deubiquitinating enzyme UCH37. Q9Y5K5. purified proteasome/UCH37, Ub-AMC cleavage fluorescence. inhibition, % (concentration not given with the values). 330,000 compounds, 0.33% hits;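 active = mean of two replicates above 20%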;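 note: 0% = compound-free wells with enzyme and 100% = wells lacking proteasome; stock transfer was 100 nL into about 20 µL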
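Material: human UCH37 enzyme supplied as purified proteasome complex. Measure: % inhibition of Ub-AMC cleavage fluorescence. Medium: pH 7.4 Tris-HCl (50 mM) with ovalbumin, ATP-MgCl2, DTT. Times: 30 min preincubation with enzyme, 25 min cleavage at room temperature. Detection: AMC fluorescence intensity at 355/460 nm.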
T cruzi inh = blocks replication of Trypanosoma cruzi; AID 1885; 300,000 compounds, 1.4% hits; T. cruzi beta-gal in NIH3T3, luminescence, 90 h; inhibition, % (test concentration not listed);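 active = mean inhibition across valid replicates above about 55%, limit read from the data; inconclusive = mean below that limit but half or more replicates reach it; inactive = mean below it, under half of replicates reach it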;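 note: signal also drops with host cell toxicity which is not excluded here; 0% = plate median of DMSO wells and 100% = zero luminescence signal; higher percent means less beta-gal luminescence so fewer parasites; stock transfer was 50 nL into about 50 µL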
MLL AF4-AF9 inh = MLL-AF4/AF9 protein interaction inhibition | AlphaScreen, biotin-AF4 peptide binding to FLAG-AF9 | inhibition, % at 10 µM | 350,000 compounds, 0.47% hits | AID 651704;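 active = every replicate reaching a set inhibition limit, whatever the replicate mean, cut at about 25% in these data; inconclusive = mean inhibition reaches that limit but some replicates miss it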;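 note: 0% = plate neutral control median and 100% = total signal loss; the record names both 10 and 1 µM as test concentration; the first replicate is given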
Target sequence (P42568 whole entry, looked up): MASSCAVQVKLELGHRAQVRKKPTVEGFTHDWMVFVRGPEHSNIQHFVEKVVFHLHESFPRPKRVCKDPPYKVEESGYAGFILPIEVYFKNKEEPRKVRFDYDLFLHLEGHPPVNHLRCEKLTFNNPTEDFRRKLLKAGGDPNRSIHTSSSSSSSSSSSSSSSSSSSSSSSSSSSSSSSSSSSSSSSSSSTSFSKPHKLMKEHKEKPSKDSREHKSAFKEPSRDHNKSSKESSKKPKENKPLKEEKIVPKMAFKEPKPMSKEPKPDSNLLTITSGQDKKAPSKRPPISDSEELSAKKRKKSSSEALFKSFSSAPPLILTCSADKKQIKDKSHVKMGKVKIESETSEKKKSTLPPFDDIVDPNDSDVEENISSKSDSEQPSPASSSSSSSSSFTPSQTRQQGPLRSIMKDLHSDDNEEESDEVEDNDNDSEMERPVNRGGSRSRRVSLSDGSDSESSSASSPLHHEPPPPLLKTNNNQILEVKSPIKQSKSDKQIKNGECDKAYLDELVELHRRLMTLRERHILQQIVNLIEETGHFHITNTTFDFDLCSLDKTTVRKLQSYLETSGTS
FGF22 binding = shifts melting point of recombinant human FGF22. Q9HCT0. recombinant FGF22 thermal shift, SYPRO orange fluorescence; percent of sucrose octasulfate shift, DMSO zero. calls only at 9.99 µM. 340,000 compounds, 1.5% hits;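 active = melting point raised past a set limit in the mean and every replicate; inconclusive = no clear call; three in four hits are not shown here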
Target sequence (Q9HCT0 whole entry, looked up): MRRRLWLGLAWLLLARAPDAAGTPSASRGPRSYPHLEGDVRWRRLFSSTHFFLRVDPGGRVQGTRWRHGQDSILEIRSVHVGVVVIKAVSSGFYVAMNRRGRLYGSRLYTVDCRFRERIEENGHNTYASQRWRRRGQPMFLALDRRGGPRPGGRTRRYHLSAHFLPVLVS
E coli growth = inhibitors of Escherichia coli growth. OD600, 23 h; active compounds read low. OD600 absorbance (test concentration not listed). 330,000 compounds, 0.21% hits. AID 1053175;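 active = OD600 absorbance below the run mean of sample wells minus 3.6 SD, in any replicate, cut at about 0.56 in these data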;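 note: stock transfer was 300 nL into about 60 µL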
Beta cell apopt = blocks beta cell apoptosis; INS-1E cytokine-induced death, ATP luminescence, 48 h; percent of positive-control rescue, neutral wells zero; protection from apoptosis, % (concentration not given with the values); 300,000 compounds, 0.8% hits; AID 435005;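 active = all replicates at 75% or more, or half of them and the mean; inconclusive = half reach 75% but not the mean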;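 note: 0% = cytokine-treated negative control wells and 100% = positive control rescue; higher means more ATP so stronger rescue from cytokine killing; wells of about 40 µL received 100 nL stock; the first replicate is given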
Bfl-1 A1 inh = inhibitors of the anti-apoptotic protein A1, read as caspase activation; MEF A1-2A-BIM cells, Caspase-Glo 3/7 luminescence, 3 h; percent of clofoctol response, vehicle zero; caspase activation, % (test concentration not listed); 330,000 compounds, 0.066% hits;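 active = over half of replicate activation scores above 10%, or exactly half above 10 with the replicate mean above 10; inconclusive = replicate mean below 10 yet half the replicates above 10; inactive = over half of replicates below 10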;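 note: wells of about 30 µL received 50 nL stock; many hits fall short of the cut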
Ecoli rRNA inh OD600 = second read-out of Ecoli rRNA inh, no call of its own (marks repeat the call); OD600 change, %; measured here: OD600 growth;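 optical density of the mix in the first replicate; 0 = DMSO median and -100 = no signal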
Ecoli rRNA inh RFP = also measured in Ecoli rRNA inh; calls as there; RFP signal change, %; measured here: RFP humanized mutant strains;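 first replicate; 0 = DMSO median and -100 = no signal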
Numbers without * were called inactive; i = inactive; ? = inconclusive; · = no result given.

Compound	Ecoli rRNA inh RFP	Ecoli rRNA inh	E coli growth	T cruzi inh	UCH37 inh	Ecoli rRNA inh OD600	Beta cell apopt	FGF22 binding	MLL AF4-AF9 inh	Bfl-1 A1 inh
CCOC(=O)c1oc2ccccc2c1CSc1nnnn1-c1ccc(C)cc1	·	·	0.7	24	0.5	·	4	·	·	-0.5
COc1cc(C)nc(OCCNC(=O)COc2ccc(Cl)cc2C)n1	·	·	0.68	8	1.4	·	-1	·	·	-0.2
C=C(C)CSc1nnc(-c2cc(OC)c(OC)c(OC)c2)n1N	·	·	0.67	2	0.2	·	2	·	·	0.7
CNC(=O)NCCN1CCCC1=O	·	·	0.74	-15	-1.8	·	6	·	·	0.1
CCCOC(c1ccccc1)(c1ccc(C(F)(F)F)cc1)C(Oc1nc(C)cc(C)n1)C(=O)O (centres undefined)	14	16	0.66	-14	3.1	17	6	i	-2.1	-0.3
O=C(COc1ccccc1)Nc1ccc(S(=O)(=O)N2CCCCCC2)cc1	3.8	-6	0.72	3	4.0	-20	·	·	·	0.5
CC(C)CN1C(=O)C(=O)N(CC(=O)NC2CCCc3ccccc32)C1=O (centres undefined)	-0.9	-9	0.68	-9	-1.6	-1	0	i	-0.2	-0.3
Cc1cccc(Oc2nc3c(c(=O)n(C)c(=O)n3C)n2C)c1	-2.7	-2	0.69	-1	0.7	3	-5	i	-1.3	-0.4
O=c1c2ccccc2oc2c1oc1ccccc12	-10	-8	0.67	·	2.9	-40	·	i	-1.7	·
COc1ccccc1NS(=O)(=O)c1ccc(OC)c([N+](=O)[O-])c1	-5.2	4	0.68	-3	3.1	6	-1	i	0.5	0.4
CCCCn1c2c(c3ccccc31)CCc1nonc1-2	1.7	-3	0.71	-2	-23	-4	-4	i	2.0	0.7
COc1ccc(Cn2ccnc2SCC(=O)Nc2nnc(C)s2)cc1	·	·	0.7	-10	2.6	·	-3	i	-0.4	-0.1
C=CCOC(=O)CCP(=O)(CCC(=O)OCC=C)c1ccccc1	·	·	0.79	·	1.2	·	2	·	·	0.1
O=C(Nc1cccc(C(=O)N2CCOCC2)c1)NC1CCCCC1	·	·	0.69	1	2.0	·	-3	·	·	0.2
N#CC1CN(Cc2ccccc2)CN(Cc2ccccc2)C1	-1.1*	-27*	0.7	-23	2.4	-0.8*	-14	i	·	0.5
Clc1ccc(CN2CCSCC2)c(Cl)c1	-1.5	2	0.63	-16	1.1	11	-5	i	-1.1	1.7
Cc1cccc(C)c1NC(=O)CNCC(=O)N(C)C	0.5	3	0.71	-17	0.8	17	-2	i	-6.0	0.5
Cc1csc(=O)n1CCC(=O)OCC(=O)c1c(N)n(CC(C)C)c(=O)n(C)c1=O	-1.3	-2	0.72	7	4.8	1	-2	i	3.2	0.2
COc1ccc(COC(=O)c2ccc(Cl)c(S(=O)(=O)N3CCOCC3)c2)cc1F	-1.4	-9	0.72	8	2.7	-29	-4	i	-0.3	0.5
O=C(OCC(=O)C12CC3CC(CC(C3)C1)C2)c1ccc(O)cc1	-1.3	-4	0.68	·	2.4	-14	5	i	1.0	-1.0
CCOc1ccc(NC(=O)CN(C)C(=O)CCCc2c[nH]c3ccccc23)cc1OCC	1.5	4	0.68	-4	1.5	-16	2	i	6.3	-0.5
COc1ccc(CCNC(=O)/C=C/c2ccco2)cc1	6.8	5	·	-19	·	12	-5	i	1.1	1.1
O=C(COc1cccc(Cl)c1)Nc1ccccc1N1CCCCC1	-1.2	4	0.73	41	-3.6	16	-6	i	0.0	-1.0
CC1(C(=O)N(c2ccccc2)C(C(=O)NC2CCCC2)c2ccccn2)CC(=O)N=C2C=CC=CN21 (centres undefined)	·	·	0.67	·	-378	·	-5	·	·	-0.1
O=C(CSc1ccc(Cl)cc1)N1CCN(c2ccc([N+](=O)[O-])cc2Cl)CC1	·	·	0.77	?	6.2	·	8	·	·	0.1
CC(C)(C)C1CCc2onc(C(=O)Nc3ccc4c(c3)OCO4)c2C1 (centres undefined)	-1.0	9	0.7	3	-9.9	3	-8	i	-0.6	0.7
COc1ccc(CCOC(=O)c2ccc(NC(=O)CC#N)cc2)cc1	9.9	-10	0.73	-2	-1.2	-21	1	i	-0.5	1.5
Cc1cc(Cl)c(C)c(S(=O)(=O)Oc2ccccc2NC(=O)CCC(=O)O)c1Cl	-2.0	-14	0.63	·	-0.5	-3	4	i	-3.7	-0.9
CC(=O)N1N=C(N)SC1(C)C	3.3	11	0.65	?	-2.2	8	0	i	-1.4	1.0
Cc1ccc(NC(=S)N/N=C/c2ccc([N+](=O)[O-])s2)cc1	-17	-33	·	63*	·	-35	?	i	?	-0.2
CC(C)(C)NC(=O)C(c1ccc(F)cc1)N(CC1CCCO1)C(=O)c1csnn1 (centres undefined)	1.7	6	·	0	·	6	-3	i	-4.1	0.0
Cc1ccc(-c2ccc(SCC(=O)Nc3ccc4c(c3)OCCO4)nn2)cc1	·	·	0.67	11	2.2	·	2	·	·	-0.3
C=CCNC(=O)/C(C#N)=C/c1c(N2CCN(c3ccc(OC)cc3)CC2)nc2c(C)cccn2c1=O	0.0	8	0.69	7	3.3	17	1	i	16	-0.1
Cc1nc([N+](=O)[O-])c(Br)n1CC(=O)c1cccc([N+](=O)[O-])c1	-4.4*	-39*	0.66	10	6.3	-24*	6	·	-0.6	0.8
CCC1Sc2ccccc2N(CC(=O)NC2CCCC2)C1=O (centres undefined)	0.9	-15	0.7	-1	2.6	-8	·	·	·	0.4
O=S(Cc1ccc(Cl)cc1)CC(O)COc1ccc(Cl)cc1 (centres undefined)	·	·	0.68	1	6.4	·	-2	·	·	0.3
COc1ccc(CC(=O)NNS(=O)(=O)c2ccccc2)cc1OC	-0.7	7	0.68	-18	-0.3	4	-3	i	-1.3	-0.2
CCOC(=O)N1CCc2c(sc3ncn(C)c(=O)c23)C1	6.8	4	0.66	-9	2.2	10	-1	i	-2.2	1.4
N#CC1(NC(=O)COc2cc(F)ccc2[N+](=O)[O-])CCCCC1	-1.2	3	0.69	·	1.6	-5	2	i	3.2	0.3
COc1ccc(N(C)C(=O)C2CCN(S(=O)(=O)c3cccc4nonc34)CC2)cc1	3.0	19	0.77	18	2.7	12	0	i	-0.3	0.0
CC(OC(=O)CNS(=O)(=O)c1ccc(C#N)cc1)C(=O)Nc1cccc(C#N)c1 (centres undefined)	-4.1	-2	0.7	-8	2.0	-5	0	i	-0.1	0.0
O=C(CSc1nc2ccccc2c(=O)n1-c1ccccc1F)Nc1ccc2c(c1)CCC2	-1.0	5	0.73	14	1.6	-15	0	i	0.6	0.9
O=[N+]([O-])c1ccc(NCCN2CCOCC2)c([N+](=O)[O-])c1	-1.2	-1	0.64	0	12	-3	-2	i	1.6	2.2
CN(CCc1ccccn1)c1ccccc1	5.4	2	0.61	·	0.4	11	·	i	3.1	·
COC(=O)c1ccc(Sc2ccccn2)c([N+](=O)[O-])c1	-11	-1	0.71	0	2.9	12	-1	i	11	-1.1
CCOCCCn1c(SCC(=O)Nc2ccccc2)nc2ccccc2c1=O	-8.7	-11	0.63	4	5.7	-6	0	i	1.0	1.0
O=C1c2ccccc2C(=O)N1CCN1CCc2ccccc21	·	·	0.67	36	2.7	·	1	·	·	0.9
CC(OCCN(C)C)C(=O)C12CC3CC(CC(C3)C1)C2 (centres undefined)	1.2	10	0.65	32	1.3	6	-1	i	-5.3	0.2
COc1cc(C(C)=O)ccc1OCC(O)CNCC(O)c1ccccc1 (centres undefined)	1.2	5	0.7	1	5.1	8	-1	i	1.2	1.0
CSc1nc(Oc2ccc(Cl)cc2)c2sccc2n1	·	·	0.71	0	36*	·	-1	·	·	-0.2
CC(C)CN1C(=O)C(NC(=O)C2CC2)(C(F)(F)F)C2=C1CC(C)(C)CC2=O (centres undefined)	4.6	1	0.7	19	7.7	2	10	i	-4.5	0.3
CCc1ccc(C(=O)NNC(=O)C2CC(=O)N(Cc3ccccc3)C2)cc1 (centres undefined)	2.2	3	0.64	-18	-0.5	7	-5	i	1.5	-0.9
Cc1ccc(Cl)cc1N1CCN(S(=O)(=O)c2c(C)[nH]c(C)c2C(=O)N2CCCC2)CC1	-4.1	-17	0.66	-3	2.1	-21	1	i	10	-0.2
COc1ccccc1N(CC(=O)N1CCCC1)S(=O)(=O)c1ccc(C)cc1	1.8	0	·	-1	·	5	6	i	0.5	-0.3
O=C(Nc1ccsn1)c1ccc(Cl)cc1Cl	-2.1	11	·	-5	·	12	-2	i	-3.3	-1.6
CC(C)c1cc(C(=O)N2CCCC(Nc3ccc(F)cc3)C2)nc(N)n1 (centres undefined)	-5.0	-1	0.66	-2	-2.3	8	-8	i	-9.0	-0.1
O=C(NCc1ccccn1)c1cc(S(=O)(=O)N2CCCCC2)ccc1Cl	-1.1	4	0.64	·	-2.8	-1	3	i	-7.3	-0.3
CCc1nnc(NC(=O)c2oc3cc(C)c(C)cc3c2C)s1	·	·	0.71	-8	-4.8	·	0	·	·	0.7
CCc1c(C)sc(NC(=O)c2cc(C(C)C)on2)c1C#N	-2.1	-9	0.68	1	-0.1	-16	5	i	-1.1	0.0
C[C@@H]1CCC(=O)N(C[C@@H](C)CSc2ccccc2)CC1	-6.2	-13	·	27	4.8	-14	-16	i	1.5	0.0

(cont.)
Compound	Ecoli rRNA inh RFP	Ecoli rRNA inh	E coli growth	T cruzi inh	UCH37 inh	Ecoli rRNA inh OD600	Beta cell apopt	FGF22 binding	MLL AF4-AF9 inh	Bfl-1 A1 inh
C=CCOc1ccc(C(=O)Nc2ccccc2C(=O)NCc2cccnc2)cc1	-1.5	-24	0.65	0	-1.6	-25	0	i	-2.7	1.1
O=C(CN1CCCC1)Nc1cc(C(F)(F)F)ccc1Cl	1.3	6	0.75	-5	-0.8	-1	0	i	-4.2	0.0
COC(=O)N/N=C(\CCC(=O)O)c1cccs1	-2.6	11	·	-27	·	3	-4	i	4.2	0.0
Cc1cccc(N2C(=O)CC(N3CCN(C(=O)c4ccccc4)CC3)C2=O)c1 (centres undefined)	·	·	0.65	6	3.0	·	-1	·	·	-0.3
Cn1ccnc1Sc1nc2ccccc2nc1NS(=O)(=O)c1ccccc1	-0.5	16	0.7	-9	5.7	-12	-3	i	-81	0.1
CCOC(=O)Cn1c(=O)n(Cc2ccco2)c(=O)c2ccc(C(=O)NC3CCCC3)cc21	-0.9	4	0.75	5	0.4	2	8	i	-3.1	1.6

Assay outcomes (PubChem BioAssay)

A portion of the library; the hit share may differ from the screen's.
